Screens from PubChem BioAssay.
PINK1 modulator: modulators of PINK1 expression; PINK1 immunofluorescence, high-content cytometry, 24 h; Potency, µM (titrated, usually from 76.6 µM), for the others: top-dose activation (PINK1 increase), usual class: activators; 410,000 compounds, 0.2% hits; AID 624263; active = well fitted activation curve with a large enough effect; inconclusive = small, poorly fitted or top-dose-only effect; inactive = flat fitted curve, though single readings scatter; cell line not stated here;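 further: potency means the concentration at half of the fitted maximal effect; % of control where 0% means no effect; nearly all actives have a fitted effect of over 65% in size; a mitochondrial uncoupler was the plate control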
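Readout is PINK1 immunofluorescence, quantified alongside mitochondrial, cell and nuclear markers by laser-scanning microplate cytometry. Cells from a stable line were exposed to compound titrations (5 concentrations) for 24 hours, with CCCP controls.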
Six1-Eya2 inh: blocks human Six1 binding to Eya2; Q15475+O00167; AlphaScreen GST-Six1/His-Eya2 binding, biochemical; stronger effect = lower value; control for the full effect not named in the record; activity change, % (no concentration beside the values); 360,000 compounds, 0.56% hits; in the data active = activity change below about -65%; inconclusive = about -30% to -65%; inactive = above about -30%; further: on the % scale 0 is the no-effect control and ±100 the full control effect
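Compounds are tested against tagged Six1 and Eya2 proteins bridged by glutathione donor and nickel acceptor beads; after a one-hour incubation at 37 °C without light, AlphaScreen emission is recorded.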
TRPML1 ag: activates the human TRPML1 channel; activation, % (test concentration not listed); TRPML1-expressing cells, Ca2+ dye fluorescence, FDSS; host cell line not named in the record; reference of the full effect not given here; Q9GZU1; 410,000 compounds, 0.12% hits; in the data active = activation above about 50%; inconclusive = about 30% to 50%; inactive = below about 30%; further: 0% is about no effect; the text of the record puts the active cut at 80%
Target sequence (Q9GZU1 whole entry, looked up): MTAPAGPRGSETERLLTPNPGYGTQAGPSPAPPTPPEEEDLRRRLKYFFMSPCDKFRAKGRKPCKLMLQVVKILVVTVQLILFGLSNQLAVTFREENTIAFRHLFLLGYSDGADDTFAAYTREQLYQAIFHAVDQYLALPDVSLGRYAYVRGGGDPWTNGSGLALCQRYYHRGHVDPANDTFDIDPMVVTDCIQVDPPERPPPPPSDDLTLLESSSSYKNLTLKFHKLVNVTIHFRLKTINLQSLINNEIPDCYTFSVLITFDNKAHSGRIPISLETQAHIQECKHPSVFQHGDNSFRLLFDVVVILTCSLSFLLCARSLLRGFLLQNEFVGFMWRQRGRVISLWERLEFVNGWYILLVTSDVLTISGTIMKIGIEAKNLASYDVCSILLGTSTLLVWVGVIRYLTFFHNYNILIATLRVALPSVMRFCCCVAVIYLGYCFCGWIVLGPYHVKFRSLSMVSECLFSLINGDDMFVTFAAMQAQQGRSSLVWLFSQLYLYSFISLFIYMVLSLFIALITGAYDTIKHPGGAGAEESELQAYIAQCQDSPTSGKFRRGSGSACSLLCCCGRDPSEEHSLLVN
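In this qHTS format, compounds were pin-transferred onto Ca8-dye-loaded TRPML1-DL cells induced with Tet overnight, and intracellular Ca2+ fluorescence was recorded kinetically for 110 s after a 10 s baseline. A subsequent 4uM final 54-4 (EC80) addition followed by a second 110 s read served as the antagonist phase.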
TRPML1 blocker: inhibitors of human TRPML1 channel; Q9GZU1; activity change, negative = inhibition, % (test concentration not listed); AID 624415; TRPML1-inducible cells, Ca2+ dye fluorescence, FDSS; stronger effect = lower value; inhibition of EC80 agonist-evoked calcium signal; 390,000 compounds, 0.02% hits; in the data active means activity change below about -50%; inconclusive means about -30% to -50%; inactive means above about -30%;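 further: stimulus is agonist 54-4 at its EC80 concentration; on the % scale 0 is the no-effect control and ±100 the full control effect; compound concentration not given in the record; the text of the record puts the active cut at -80%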
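Calcium fluorescence in TRPML1-DL cells induced overnight with Tet: a 110 s read after compound pin addition, then a 110 s antagonist read after challenge with 54-4 at 4 uM final (EC80).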
D2 agonist: agonists of human D2 dopamine receptor (beta-arrestin) | P14416 | DiscoveRx PathHunter D2 beta-arrestin, luminescence, 90 min; 100% = 57 uM dopamine signal | activation, % (concentration not given with the values) | 360,000 compounds, 0.084% hits; in the data active = activation above about 40%; inconclusive = about 15% to 40%; inactive = below about 15%; further: the text of the record calls up to 30% inactive
Target sequence (P14416 whole entry, looked up): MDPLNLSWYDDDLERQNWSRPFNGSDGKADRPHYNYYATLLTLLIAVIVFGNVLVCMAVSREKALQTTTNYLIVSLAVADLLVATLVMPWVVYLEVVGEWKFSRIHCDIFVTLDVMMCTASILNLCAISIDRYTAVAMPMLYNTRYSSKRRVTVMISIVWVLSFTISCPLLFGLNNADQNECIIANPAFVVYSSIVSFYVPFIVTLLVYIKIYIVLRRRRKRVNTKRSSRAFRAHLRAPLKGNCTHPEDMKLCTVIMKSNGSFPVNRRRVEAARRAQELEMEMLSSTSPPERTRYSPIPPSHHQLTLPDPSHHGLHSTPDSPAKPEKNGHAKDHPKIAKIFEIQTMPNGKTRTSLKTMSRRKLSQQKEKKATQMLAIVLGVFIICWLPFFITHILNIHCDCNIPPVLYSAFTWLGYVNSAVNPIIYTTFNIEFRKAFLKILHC
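DiscoveRx PathHunter D2 beta-arrestin cells (2,100/well) attached overnight, then compound-stimulated 90 min at 37 C in HBSS/10 mM HEPES/0.1% Tween-20 buffer; beta-galactosidase complementation read by luminescence after 1 h at ambient temperature. Dopamine 57 uM final (EC100) as control.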
CtBP-E1A inh: blocks the CtBP interaction with E1A; AlphaScreen GST-E1A/His-CtBP binding, 1536-well; stronger effect = lower value; control for the full effect not named in the record; activity change, % (no concentration beside the values); 340,000 compounds, 0.49% hits; in the data active means activity change below about -65%; inconclusive means about -30% to -65%; inactive means above about -30%; further: on the % scale 0 is the no-effect control and ±100 the full control effect
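Homogeneous bead-based format: GST-tagged E1A captured on glutathione donor beads, His-tagged CtBP on nickel acceptor beads; compounds precede bead addition by 2 h at 37 °C.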
The depositor's hits bear a star; ? = inconclusive; · = no result given; [ ] = another dose, or the depositor's remark.

SMILES	PINK1 modulator	Six1-Eya2 inh	TRPML1 ag	TRPML1 blocker	D2 agonist	CtBP-E1A inh
COc1ccc(CNC(=O)COC(=O)c2cc3ccccc3cc2O)cc1OC	14%	-1	2.1	-2	4.4	2
CCN1C(=O)[C@H]2[C@@H](c3ccc(-c4cccc(Cl)c4)c(OC)c3)N[C@@](Cc3ccccc3)(C(=O)OC)[C@H]2C1=O	0.9%	-12	1.5	1	0.7	-10
Cc1cccc(CSCCNC(=O)CCSc2ccccc2)c1	0.1%	-2	2.9	31	-3.6	-7
N#C/C(=C\c1c(N2CCCCCC2)nc2ccccn2c1=O)C(=O)NCc1ccco1	2.5%	-17	1.1	8	-0.7	-8
Cc1ccccc1/C=N/Nc1nc2ccccc2c(=O)n1O	2.1%	-16	-0.9	-13	-5.5	-3
O=C(N1CCN(Cc2ccc3c(c2)OCO3)CC1)C(Cl)(Cl)Cl	2.1%	13	0.5	17	?	3
COc1ccc(NC(=O)CSc2ccc3c(c2)OCCO3)cc1S(N)(=O)=O	0.3%	7	-0.8	1	-3.0	2
N#C/C(=C\c1ccc(C(=O)O)cc1)S(=O)(=O)c1cc(Br)ccc1Br	1.3%	-4	-0.3	-11	0.3	0
Cc1ccc(S(=O)(=O)N/N=C\c2ccc([N+](=O)[O-])o2)cc1	2.8%[38.3 µM]	-3	0.7	-12	0.4	-16
Fc1ccc(Cn2nnnc2C(c2cccs2)N2CCCCCC2)cc1 (stereo not drawn)	·	1	3.5	-13	0.3	8
CSc1ccccc1OCc1cc(C(=O)N(C)C2CCCc3ccccc32)no1 (stereo not drawn)	0.3%	-9	0.6	67	-0.6	·
COc1cc(S(=O)(=O)NCCN2CCOCC2)c(OC)cc1Cl	0.2%	6	-0.4	13	-2.0	2
CCc1ccc2nc(SCC(=O)Nc3nnc(C)s3)c(C)cc2c1	14%	-1	0.8	-11	-7.9	0
CCCN(Cc1nnc(-c2cccs2)o1)C(=O)c1cccc(S(=O)(=O)N2CCOCC2)c1	0.7%	-3	-0.1	-7	-0.7	6
COC(CNC(=O)C1CCN(S(=O)(=O)c2ccc3nc4c(c(C(=O)O)c3c2)CC(C)CC4)CC1)OC (stereo not drawn)	0.5%	-22	-0.4	-5	-1.8	-18
CC(C)Cn1c(=S)[nH]c2cc(C(=O)O)ccc2c1=O	-0.2%	-1	0.1	4	-3.3	9
C/C(=N\NC(=O)c1ccc([N+](=O)[O-])cc1)c1cc2ccccc2oc1=O	3.9%	?	-0.1	-2	-1.5	?
CCOCc1nnc(NC(=O)COC)s1	-0.4%	5	-1.0	-4	-1.2	7
CCC(=O)Nc1sc(C(=O)N2CCCCC2)c(C)c1C#N	-2.7%[38.3 µM]	7	3.9	4	-0.1	8
Cc1ccc(S(=O)(=O)N(C)C)cc1NC(=O)COC(=O)c1cccs1	2.4%	-2	-0.5	-6	0.7	-2
CCOC(=O)c1c(NC(=O)COC(=O)CCS(=O)(=O)c2ccc(C)cc2)sc(C)c1C	1.5%	-7	1.1	-10	-0.6	-4
CCc1ccc(-c2nc(SCC(=O)NC3CCCC3)n[nH]2)cc1	0.2%	3	-0.1	20	-0.7	8
O=C(Cc1ccc(F)cc1)NCC1CCCO1 (stereo not drawn)	1.1%	0	0.4	-11	-3.3	-2
CCS(=O)(=O)c1ccc(S(=O)(=O)CC)s1	1.1%	0	0.0	7	-2.9	-6
C=CCOc1nc2sc(C)c(C)c2c(=O)n1-c1ccccc1	0.1%	-6	0.0	-2	0.4	·
O=C(COC(=O)C1COc2ccccc2O1)Nc1ccc(Cl)cc1 (stereo not drawn)	0.6%	6	-0.7	7	-6.3	3
O=c1ccc(-c2ccc(S(=O)(=O)Nc3ccc(F)cc3)o2)n[nH]1	-0.2%	-1	-0.3	22	0.5	-18
c1ccc(CCNCc2ccco2)nc1	0.3%	-3	0.6	15	-2.3	-1
CCS(=O)(=O)c1nc(S(=O)(=O)c2ccc(C)cc2)c(N2CCCC2)s1	-2.2%	3	0.2	-4	-0.2	-9
CCN(CC)CCCOC(=O)C1(c2ccccc2)CCCC1	1.4%	5	0.7	-5	0.9	-3
O=C(N/C(=C\c1ccc2c(c1)OCO2)C(=O)N1CCOCC1)c1cccs1	-0.1%[38.3 µM]	7	0.3	-3	-0.9	-1
COc1ccc(C(=O)N/C(=C\c2cn(C)c3ccccc23)C(=O)NCCCn2ccnc2)cc1	1.9%	-8	-0.3	15	-4.8	-4
CCOC(=O)c1sc(NC(=O)CSc2nnc(C)s2)c(C(=O)OCC)c1C	0.8%	5	0.6	-5	0.5	2
CCN(CC)C(=O)Cn1cc(C(=O)C(=O)NCc2cccs2)c2ccccc21	2.1%	-1	-1.0	30	-2.9	2
COc1ccccc1NC(=O)c1cnc(SC)nc1	0.4%	4	0.4	-19	-3.6	2
COc1ccc(OCC(O)CNC(=O)Nc2ccc(Cl)cc2)cc1 (stereo not drawn)	0.2%	2	1.0	-8	0.9	9
COc1ccc(N2CCN(C3CC(=O)N(c4ccc5c(c4)OCCO5)C3=O)CC2)cc1 (stereo not drawn)	-4.1%[38.3 µM]	-10	0.2	0	1.8	-12
CCOC(=O)c1c(S(=O)(=O)Nc2cccc(-c3ccno3)c2)c(C)n(C)c1C	0.6%	-15	-1.0	-8	2.0	-15
O=C(Nn1cnc2ccccc2c1=O)C1CCCCC1	·	8	0.1	22	0.2	1
CCN(CC)CCn1c(=N)n(CC(O)c2ccc(OC)c(OC)c2)c2ccccc21 (stereo not drawn)	-0.9%	6	1.8	-20	-2.2	-14

6 of the compounds above, with bars between the fields.
mol | PINK1 modulator | Six1-Eya2 inh | TRPML1 ag | TRPML1 blocker | D2 agonist | CtBP-E1A inh
c1ccc(CCNCc2ccco2)nc1 | 0.3% | -3 | 0.6 | 15 | -2.3 | -1
CCOC(=O)c1c(S(=O)(=O)Nc2cccc(-c3ccno3)c2)c(C)n(C)c1C | 0.6% | -15 | -1.0 | -8 | 2.0 | -15
CCOC(=O)c1sc(NC(=O)CSc2nnc(C)s2)c(C(=O)OCC)c1C | 0.8% | 5 | 0.6 | -5 | 0.5 | 2
COc1ccccc1NC(=O)c1cnc(SC)nc1 | 0.4% | 4 | 0.4 | -19 | -3.6 | 2
O=c1ccc(-c2ccc(S(=O)(=O)Nc3ccc(F)cc3)o2)n[nH]1 | -0.2% | -1 | -0.3 | 22 | 0.5 | -18
CCOC(=O)c1c(NC(=O)COC(=O)CCS(=O)(=O)c2ccc(C)cc2)sc(C)c1C | 1.5% | -7 | 1.1 | -10 | -0.6 | -4

(list continues)
SMILES	PINK1 modulator	Six1-Eya2 inh	TRPML1 ag	TRPML1 blocker	D2 agonist	CtBP-E1A inh
O=C(CCNS(=O)(=O)c1cccc2nsnc12)NCc1ccc(F)cc1	-1.0%	2	0.0	10	2.0	8
CCCCCCCNC(=O)C1(CC2CC(c3ccc(Cl)cc3)=NO2)CCN(C(=O)C2CCCC2)CC1 (stereo not drawn)	0.9%	1	0.3	-9	3.2	-3
COc1ccc(C)cc1NC(=O)n1ncc2cc(Cl)ccc21	1.9%	-1	3.3	19	-9.8	5
O=C(CSc1nc2ccccc2nc1Cc1ccccc1)N1CCc2ccccc21	2.2%	·	-0.2	-5	·	·
CC(=O)c1ccc(OCCCC(=O)Nc2cc(S(=O)(=O)N3CCCCC3)ccc2C)cc1	0.2%	-2	1.1	-3	-3.7	-5
c1ccc(CCn2nnnc2C(c2cccnc2)N2CCN(c3ccccc3)CC2)cc1 (stereo not drawn)	·	-6	0.2	3	2.1	8
COc1ccc2nc(NC(=O)CSc3nnc4n3C(C)(C)Cc3ccccc3-4)sc2c1	·	-5	0.0	4	-1.2	2
CCOC(=O)C1CCCN(C(=O)c2c(-c3ccccc3Cl)noc2C)C1 (stereo not drawn)	-0.8%	6	-0.8	14	-1.5	0
CC1CCN(CCCCOc2ccccc2-c2ccccc2)CC1	3.7%	-11	-1.2	5	2.6	-14
COc1ccccc1CCc1nnc(CCC(=O)N(C)Cc2cccc3cnccc23)o1	-2.2%	2	-0.1	-15	-7.3	-3
CC(C)CCC1(C)NC(=O)N(CC(=O)Nc2ccc3c(c2)OCCO3)C1=O (stereo not drawn)	1.4%	4	-0.4	-5	1.1	0
Cc1c(Cl)cccc1-n1ncc(C(=O)Nc2ccc(F)cc2F)c1C1CCN(C(=O)OC(C)(C)C)CC1	-1.7%	·	9.4	1	·	·
O=C(NC(=S)NNC(=O)c1ccccc1[N+](=O)[O-])c1ccccc1	-1.0%	12	0.1	-1	-5.0	20
CC(C)c1nnc(NC(=O)CCC(=O)N2CCN(c3cccc(Cl)c3)CC2)s1	0.0%	-1	0.2	6	-3.0	0
C=CCN(c1ccccc1OC)S(=O)(=O)c1cccc(C(=O)NCc2cccs2)c1	1.2%	-7	2.5	19	2.2	10
CC(C)N(C)CCOC(=O)c1ccc2c(c1)OCCO2	2.1%	-1	-0.7	0	-0.7	1
O=C(Cc1ccccc1F)Nc1cc(Cl)ccc1N1CCCC1	4.1%	-8	0.7	-3	2.1	-2
O=C(NCCCN1CCCC1=O)c1c(O)nc2sccn2c1=O	-0.3%	-2	-0.2	2	-0.6	-18
CCOC(=O)c1c(-c2ccccc2)csc1NC(=O)C(C)NCCCN1CCOCC1 (stereo not drawn)	-0.4%	-8	0.0	22	4.0	-16
COc1ccccc1NS(=O)(=O)c1ccc(C(=O)NCC(c2ccc(F)cc2)N2CCOCC2)cc1 (stereo not drawn)	0.1%	3	0.9	-3	-3.3	·
O=C(COC(=O)Cc1ccccc1[N+](=O)[O-])NCc1ccccc1Cl	-0.2%	10	0.5	17	-3.1	1
Cc1ccc(NC(=O)c2c(C(F)(F)F)nn(C)c2SCc2cccc(C(F)(F)F)c2)cc1C	6.9%	11	0.8	39	-0.6	12
COc1ccc(-c2nc(C(=O)Nc3cccc(C(C)=O)c3)nn2-c2ccc(Cl)cc2)cc1	0.8%	·	0.6	-10	·	·
CN1CCN(C2CCCCC2NS(=O)(=O)c2ccc(Cl)cc2)CC1 (stereo not drawn)	-0.3%	2	0.3	13	1.5	3
CC(=O)OCC1OC(c2ccccc2)C(OC(C)=O)C(OC(C)=O)C1OC(C)=O (stereo not drawn)	4.9%[38.3 µM]	1	3.2	14	-1.0	6
COc1ccc(CCNc2ncnc3c2cnn3-c2ccc(F)cc2)cc1	1.6%	·	0.3	-5	·	·
CCOc1ccccc1CN1CCc2nc(Nc3ccc4c(c3)OCCO4)ncc2C1	0.7%	·	0.9	-19	·	·
CCOP(=O)(c1ccccc1)c1nc(-c2ccccc2C)oc1NCc1ccccc1 (stereo not drawn)	?	1	0.0	3	1.2	·
Cc1ccc(Cn2ccc(NC(=O)c3cc(-c4ccccc4)on3)n2)cc1	16%[38.3 µM]	1	4.4	8	1.5	3
O=C(NN1C(=O)c2ccccc2NC1c1cccnc1)c1ccccc1 (stereo not drawn)	-0.6%	2	1.0	-16	0.0	-4
Cc1ccccc1-c1ccc(CN2CCN(C)C(CCO)C2)cc1 (stereo not drawn)	-0.9%	-1	·	·	1.9	·

No enrichment for hits. Share with any hit: about 1%.
